Screens (PubChem BioAssay)
GIV Gai3 FP – GIV-Galpha-i interaction inhibition. Galpha-i3/FITC-GIV peptide fluorescence polarization, 90 min; hits give low values; scaled: aluminum fluoride 0%, vehicle 100%. hit rate 0.42% among 210,000. percent of control (FP), % (concentration not given with the values);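 active means replicate mean at 85% of control or lower, very high polarization wells dropped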;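 further: wells of about 15 µL received 100 nL stock; the first replicate is given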
Target sequence (P08753 whole entry, looked up): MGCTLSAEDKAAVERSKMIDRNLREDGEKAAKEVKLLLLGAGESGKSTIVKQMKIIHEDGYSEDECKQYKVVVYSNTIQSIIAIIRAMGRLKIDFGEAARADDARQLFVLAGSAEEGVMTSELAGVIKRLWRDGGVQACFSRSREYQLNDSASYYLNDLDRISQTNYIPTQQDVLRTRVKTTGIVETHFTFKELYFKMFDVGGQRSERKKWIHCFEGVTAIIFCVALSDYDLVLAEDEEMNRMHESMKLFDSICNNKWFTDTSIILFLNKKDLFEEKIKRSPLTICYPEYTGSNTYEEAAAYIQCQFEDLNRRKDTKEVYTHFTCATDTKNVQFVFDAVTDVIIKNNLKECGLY
Active calls of the source: *. Some of the compounds tested, so the mix of outcomes need not match the whole.

SMILES	GIV Gai3 FP
CCOC(=O)C1(C)C=C(Nc2ccc(Br)cc2)C(=O)N1c1ccc(Br)cc1 (stereo not drawn)	110
Cc1ccc(-c2nc(C)cc(OCC(=O)Nc3ccccc3)n2)cc1	106
CCOC(=O)C1=C(CSc2nc(C)c(C)c(C)c2C#N)OC(N)=C(C#N)C1c1cccs1 (stereo not drawn)	103
CC1(C)CC(=O)C2=C(C1)NC1=C(C(=O)CC(C)(C)C1)C2c1ccccc1	103
CC1CCc2cc(F)ccc2N1C(=O)c1ccc(N2CC3CC(C2)c2cccc(=O)n2C3)c(NC(=O)c2cccnc2)c1 (stereo not drawn)	117
CCCNC(=O)c1cnc(N2CCNCC2)c(NS(=O)(=O)c2c(C)cc(C)cc2C)c1	102
COc1ccc(NC(=O)Cn2c3ccccc3n3c(=O)cc(-c4ccccc4)nc23)c(OC)c1	104
CC(=O)c1ccc(N2CCN(c3ncnc4c3cnn4-c3ccc(C)cc3C)CC2)cc1	112
CCS(=O)(=O)c1nc2ccc(NS(=O)(=O)c3cc(OC)ccc3OC)cc2s1	102
Cc1c(CN2CCCC(c3nncn3C(C)C)C2)cnn1C (stereo not drawn)	102
CCc1ccc(NC(=O)Nc2ccc3c(c2)N(C(=O)c2ccc(C)cc2)CC3)cc1	102
CCOc1ccccc1NC(=O)C1=C(C)NC(=O)NC1c1ccccc1OC (stereo not drawn)	98
CC(C(=O)NCC1(c2ccccc2)CCCC1)N1CCOCC1 (stereo not drawn)	104
C=CCc1ccccc1OCCOc1ccc(/C=C2/C(=N)N3C(c4ccccc4)=CSC3=NC2=O)cc1OC	110
CCCN(C)S(=O)(=O)c1cc(-c2nc(C(C)(C)C)cs2)cs1	100
Cc1ccccc1NC(=O)COc1cccc2c(=O)n(C)ccc12	97
Cc1c(CN2CCSCC2)nnn1-c1ccccc1	98
O=C1C2=C(Nc3ccccc3SC2c2ccco2)c2ccccc21 (stereo not drawn)	99
COc1ccc(NS(=O)(=O)c2cc(-c3nc(C)c(C(=O)N4CCCC4)s3)cs2)cc1OC	98
Cc1cc(N2CCCC2)nc(Nc2ccc(NC(=O)Nc3ccc(Cl)cc3)cc2)n1	107
Cc1nc(-c2cccc(-c3noc(C4CCCC4)n3)c2)cs1	106
COc1ccc(NC(=O)c2cc3n(n2)C(C(F)(F)F)CC(c2ccc(OC)c(OC)c2)N3)cc1Cl (stereo not drawn)	109
CC1CCCCC12NCCN=C2NCc1ccc(F)cc1 (stereo not drawn)	106
N#CC1(C#N)[C@H](c2ccc(Br)cc2)[C@@H](C(=O)c2ccccc2)N2c3ccccc3C=C[C@@H]21	114
CCOc1ccc(Br)cc1S(=O)(=O)N1CCN(c2nc(C)cc(N(C)C)n2)CC1	102
CCNc1cc(C)nc(N2CCN(S(=O)(=O)CC)CC2)n1	109
COc1ccc(OC)c(-n2c(SCC(=O)N3CCc4ccccc43)nc3c(c2=O)SCC3)c1	112
Cc1ccc(C2CC(=O)NC(SCC(=O)Nc3ccc(Br)cc3)=C2C#N)o1 (stereo not drawn)	105
CC1=C(C(=O)Nc2ccccc2C)C(c2ccc(C(C)C)cc2)NC(=O)N1 (stereo not drawn)	98
O=C(COc1ccccc1Cl)Nc1cccc(OCc2cc(=O)n3ccccc3n2)c1	109
Cc1nn(-c2ccc3nncn3n2)c(C)c1CCC(=O)NCCc1c[nH]c2ccccc12	103
Cc1ccc2c(c1)-c1ccccc1S(=O)(=O)N2	111
O=C(c1ccoc1)N1CCCn2nc(-c3cccs3)cc2C1	104
COc1ccc(C2CC(C(F)(F)F)n3ncc(C(=O)N4CCN(c5cccc(Cl)c5)CC4)c3N2)cc1OC (stereo not drawn)	102
Cc1cccc(N2CC(O)(c3ccc([N+](=O)[O-])cc3)[N+]3=C2SCCC3)c1 (stereo not drawn)	105
CCN1C(=O)CC(C(=O)Nc2ccc(Br)cc2)SC1=Nc1cccc(F)c1 (stereo not drawn)	117
CCCCN(C)C(=O)c1cc(NS(=O)(=O)c2cc(C)c(C)cc2C)cnc1N1CCNCC1	100
O=C(Nc1ccccc1Sc1ncnc2sc3c(c12)CCCC3)c1ccco1	109
Cc1ccc(-c2ccc(-n3nc(C)c(S(=O)(=O)NCc4ccc5c(c4)OCO5)c3C)nn2)cc1	115
CC(=O)N1CC(C)(C)c2cc(S(=O)(=O)N3CCN(c4ccc(Cl)cc4)CC3)ccc21	105
Cc1ccc2c(c1)c(-c1ccccc1)c(-c1ccccc1)n2CC(O)CN1CCN(Cc2ccccc2)CC1 (stereo not drawn)	120
Cc1cc(C)cc(-n2c(CN3CCN(C(=O)NC(C)(C)C)CC3)nc3cccnc32)c1	105
C=CCn1c(SCC(=O)Nc2ccc(S(=O)(=O)Nc3nc(C)cc(C)n3)cc2)nnc1-c1cccnc1	104
O=C(Nc1cccc(Cl)c1)c1ccc(-n2nc(N3CCCC3)ccc2=O)cc1	99
N#CC1=C(N)OC2=C(C(=O)CC(c3ccccc3)C2)C1c1ccc(Br)cc1 (stereo not drawn)	108
O=C(C1CCCC1)N1CCCN(Cc2noc(-c3ccccc3)n2)CC1	108
CC(C)c1csc(-c2csc(S(=O)(=O)N3CCN(c4ccccc4F)CC3)c2)n1	103
CCCC(CCC)C(=O)Nc1ccc2c(c1)N(C(=O)CCN1CCOCC1)c1ccccc1CC2	105
Nc1c(C(=O)NCc2ccccc2)sc2nc3c(c(-c4ccco4)c12)CCCC3	101
COc1cc(C2C(C#N)=C(N)N(N(C)C)C3=C2C(=O)CC(c2ccccc2)C3)cc(OC)c1OC (stereo not drawn)	103
O=C(C1CCN(c2cncnc2N2CCCCC2)CC1)N1CCOCC1	104
Cc1ccc(-n2ncc3c2NC(=O)CC3c2cc(Br)ccc2F)cc1 (stereo not drawn)	102
Cn1c(=O)c2nc(S(=O)(=O)CCC(=O)Nc3ccc(Br)cc3)n(C)c2n(C)c1=O	104
CN1CCN(S(=O)(=O)c2cc(-c3noc(C4CCCC4)n3)cs2)CC1	100
COc1ccc(OC2OC(COC(C)=O)C(OC(C)=O)C(OC(C)=O)C2OC(C)=O)cc1 (stereo not drawn)	106
O=C(NCc1nnc(C(=O)Nc2ccc(F)cc2)s1)Nc1cccc(Br)c1	106
COC(=O)c1c(NC(=O)c2ccc(Br)cc2)sc2c1CCN(C(C)C)C2	-26*
COc1ccccc1-n1c(=O)c2c3c(sc2n(Cc2ccccc2)c1=O)CN(C(C)=O)CC3	107
CC(C)C(C(=O)OCC(=O)c1cccc([N+](=O)[O-])c1)N1C(=O)C2C3c4ccccc4C(c4ccccc43)C2C1=O (stereo not drawn)	105
CCN(CC)c1nc(C)nc2sc(C(=O)N3CCCCC3C)c(C)c12 (stereo not drawn)	110

12 entries from above, ordered by number of heavy atoms, falling.
SMILES	GIV Gai3 FP
CC(C)C(C(=O)OCC(=O)c1cccc([N+](=O)[O-])c1)N1C(=O)C2C3c4ccccc4C(c4ccccc43)C2C1=O (stereo not drawn)	105
Cc1ccc2c(c1)c(-c1ccccc1)c(-c1ccccc1)n2CC(O)CN1CCN(Cc2ccccc2)CC1 (stereo not drawn)	120
C=CCn1c(SCC(=O)Nc2ccc(S(=O)(=O)Nc3nc(C)cc(C)n3)cc2)nnc1-c1cccnc1	104
CCCC(CCC)C(=O)Nc1ccc2c(c1)N(C(=O)CCN1CCOCC1)c1ccccc1CC2	105
COc1ccccc1-n1c(=O)c2c3c(sc2n(Cc2ccccc2)c1=O)CN(C(C)=O)CC3	107
COc1ccc(OC2OC(COC(C)=O)C(OC(C)=O)C(OC(C)=O)C2OC(C)=O)cc1 (stereo not drawn)	106
Cc1cc(C)cc(-n2c(CN3CCN(C(=O)NC(C)(C)C)CC3)nc3cccnc32)c1	105
Nc1c(C(=O)NCc2ccccc2)sc2nc3c(c(-c4ccco4)c12)CCCC3	101
O=C(Nc1cccc(Cl)c1)c1ccc(-n2nc(N3CCCC3)ccc2=O)cc1	99
N#CC1=C(N)OC2=C(C(=O)CC(c3ccccc3)C2)C1c1ccc(Br)cc1 (stereo not drawn)	108
O=C(C1CCCC1)N1CCCN(Cc2noc(-c3ccccc3)n2)CC1	108
CCN(CC)c1nc(C)nc2sc(C(=O)N3CCCCC3C)c(C)c12 (stereo not drawn)	110

(next part)
SMILES	GIV Gai3 FP
CCOC(=O)C1(C(F)(F)F)N=C(c2ccc(F)cc2)OC(N2CCCCC2)=N1 (stereo not drawn)	100
Cc1noc(C)c1C1CCCN1Cc1ccccc1O (stereo not drawn)	100
CN(CCc1noc(C(=O)NCc2ccccc2)n1)C(=O)COc1ccc(Cl)cc1	107
CC(=O)c1c(C)oc2ccc(N(C(=O)c3ccccc3Cl)S(=O)(=O)c3cccc([N+](=O)[O-])c3)cc12	112
CCOC(=O)c1[nH]c(C)c(CCC(=O)N2CCCC(C(=O)N3CCC(C)CC3)C2)c1C (stereo not drawn)	106
CCCCNC(=O)CSc1nc2ccccc2nc1Cc1ccc(F)cc1	114
O=C(Cc1ccc(Cl)cc1)Nc1ccc(SCc2nnc(-c3ccccc3)o2)cc1	101
CCCC(=O)N(c1ccc2oc(C)c(C(=O)OC)c2c1)S(=O)(=O)c1ccc(Cl)c([N+](=O)[O-])c1	107
Cc1cc2c(cc1C)-c1c(sn(-c3cccc(C(F)(F)F)c3)c1=S)C(C)(C)N2	107
COc1ccc(C(C2=C(O)CCCC2=O)C2=C(O)CCCC2=O)cc1OC	110
O=C(NC1CCCC1)c1ccc(-c2nc(-c3ccccc3)no2)cc1	101
O=C(CCC1CCCC1)N1CCN(c2ccc(N3CCCC3)nn2)CC1	108
Cc1nc(-c2cc(S(=O)(=O)Nc3ccc(Br)cc3C)c(C)s2)cs1	107
O=C(NCCc1c[nH]c2ccccc12)c1cnn2c(C(F)(F)F)cc(-c3ccco3)nc12	126
CC(C)Cn1nc2c(S(=O)(=O)N3CCOCC3)cccn2c1=O	103
O=S(=O)(NC1CC1)c1cc(-c2nnc(C3CC3)o2)cs1	106
CCOc1ccc(C2=NN3C(C2)c2cc(Cl)ccc2OC3c2ccc(OC)c(OC)c2)cc1 (stereo not drawn)	110
Cc1noc(C)c1C(=O)N1CCCC1c1cc(C(C)C)no1 (stereo not drawn)	101
CCn1c(=O)sc2cc(S(=O)(=O)N3CCN(C(=O)c4cnccn4)CC3)ccc21	102
COC(=O)c1c(-c2cccc(F)c2)noc1N1CCOCC1	105

In another format: 2 of the compounds above.
SMILES: CC(C(=O)NCC1(c2ccccc2)CCCC1)N1CCOCC1 (stereo not drawn)
  GIV Gai3 FP: 104
SMILES: C=CCc1ccccc1OCCOc1ccc(/C=C2/C(=N)N3C(c4ccccc4)=CSC3=NC2=O)cc1OC
  GIV Gai3 FP: 110

The list goes on.
SMILES	GIV Gai3 FP
COc1ccc(CNC(=O)c2cnn3c(C)c(Cc4cccc(Br)c4)c(C)nc23)cc1	111
COc1cccc(N/C(SCc2ccc(C)cc2C)=C(/C#N)C(=O)NCCc2ccc(OC)c(OC)c2)c1	104
Cc1sc(-c2nc(C(C)C)cs2)cc1S(=O)(=O)NCc1ccccc1	106
CN(C)C(=O)c1ccc2c(c1)nc(CN1CCN(S(=O)(=O)c3cccc4nsnc34)CC1)n2C	105
O=C1C2C3c4ccccc4C(c4ccccc43)C2C(=O)N1CNCc1ccccc1 (stereo not drawn)	108
CCOC(=O)CSc1nc(NCc2ccc(Cl)cc2)c2ccccc2n1	107
CC(=O)N(c1ccccc1)C1CC(C)N(C(=O)c2cccc(Cl)c2)c2ccccc21 (stereo not drawn)	107
CC1(C)CC(=O)C2=C(C1)NC1=C(C(=O)CC(C)(C)C1)C2c1ccc(Cl)cc1	123
CCS(=O)(=O)c1nc2ccc(NS(=O)(=O)c3ccc(OC)c(Cl)c3)cc2s1	105
CN1C(=S)SC(N2OC3C(=O)N(c4ccccc4)C(=O)C3C2c2cccc([N+](=O)[O-])c2)C1(C)C (stereo not drawn)	109
Cc1ccc(C(=O)N/C(=C/c2ccc([N+](=O)[O-])cc2)C(=O)NCc2ccco2)cc1	106
CC(=O)[C@H]1[C@H](c2ccc(F)cc2)C(C#N)(C#N)[C@@H]2c3ccccc3C=CN21	116
Cc1ccc(C(=O)ONC(=Nc2cc(C)ccc2C)c2nonc2N)cc1	111
CCOC(=O)N1CCC(NC(=O)c2ccc(N3CC4CC(C3)c3cccc(=O)n3C4)c(NC(=O)c3cccs3)c2)CC1 (stereo not drawn)	108
CSC1=NC(=Nc2ccccc2C)C2(CCC(C(C)(C)C)CC2)N1c1ccc(Cl)cc1 (stereo not drawn)	116
CN=C1S/C(=C/c2cc(Br)c(OC(C)=O)c(OC)c2)C(=O)N1C	111
COc1cccc(C2C(N3C(=O)c4ccccc4C3=O)C(=O)N2c2ccc(Cl)cc2)c1 (stereo not drawn)	111
O=C(NCc1nnc(C(=O)Nc2ccc(F)cc2)s1)c1cccc(Cl)c1	114
COc1cc(-c2nc(C=Nc3ccc(Cl)cc3Cl)c(O)o2)cc(OC)c1OC	119
Cc1csc(-c2cc(S(=O)(=O)N3CCN(Cc4ccc5c(c4)OCO5)CC3)c(C)s2)n1	-0.1*
CCc1onc(C)c1C1CCCN1C(=O)c1cc2nc(C3CC3)cc(C(F)(F)F)n2n1 (stereo not drawn)	102
CCCc1ccc(S(=O)(=O)N2CCCC2c2nc(-c3ccc(C)cc3)no2)cc1 (stereo not drawn)	101
c1ccc(-c2nc(NCCCN3CCOCC3)c3ccccc3n2)cc1	103
O=[N+]([O-])c1ccc2c(c1)S(=O)(=O)c1ccccc1-2	99
O=C(COc1ncnc2onc(-c3ccccc3)c12)N1CCc2ccccc21	104
O=C(NC1CCN(Cc2ccccc2)CC1)C1CCN(c2ncc(-c3ccc(F)cc3)cn2)CC1	100
CCOC(=O)C1C(c2ccc(O)c(OC)c2)NC(=S)NC1(O)C(F)(F)F (stereo not drawn)	120
CCOC(=O)C1=C(C)N=c2s/c(=C/c3cc([N+](=O)[O-])ccc3N3CCN(C)CC3)c(=O)n2C1c1cccc(OC)c1 (stereo not drawn)	103
CC(C)C1Nc2c(C(=O)c3ccccc3)cc(Cl)cc2C2C=CCC21 (stereo not drawn)	108
COc1ccc(CNC(=O)CCCCCn2c(=S)[nH]c3ccc(Br)cc3c2=O)cc1	106
O=C(NCc1ccc2c(c1)OCO2)c1ccc(Oc2ccnc(-c3ccc(F)cc3)n2)cc1	103
COc1cc(C2NC(=O)NC(C)=C2C(=O)OCCOc2ccccc2)cc(OC)c1OC (stereo not drawn)	102
